NS1 inh: blocks influenza NS1 protein function; Potency, µM (series often up to 46.1 µM), without a hit: at the top dose activity, positive = more growth; actives 0.4% (n = 270,000); S. cerevisiae slowed by influenza A NS1, growth recovery by OD600; AID 2326; further: actives are rising curves; nearly all actives have a fitted effect of over 50% in size
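Recovery from NS1-induced slow growth read by OD600 in budding yeast switched to galactose assay medium (pH 6.0, -URA) at 1:100 dilution. Compound 23 nl per well; the matching strain lacking NS1 serves as control.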
Lassa entry inh: inhibitors of Lassa virus binding or cell entry; actives 1.2% (n = 300,000); Potency, µM (top dose mostly 37.9 µM), for inactives: at the highest dose activity change, negative = inhibition, most hits filed as inhibitors; Lassa virus pseudotype entry inhibition, cell reporter; control for the full effect not named in the record; AID 540256; active means well fitted inhibition curve with a large enough effect; inconclusive means small, poorly fitted or top-dose-only effect, or effect the other way; inactive means flat fitted curve, though single readings scatter; tested in HEK293 cells; further: on the % scale 0 is the no-effect control and ±100 the full control effect; nearly all actives have a fitted effect of over 50% in size; luciferase read-out
Marburg entry inh: blocks Marburg virus binding to or entry into cells. Marburg virus pseudotyped entry inhibition, cell reporter; control for the full effect not named in the record; about a third of the inactives were read at about 46 µM. Potency, µM (highest dose often 37.8 µM), without a hit: at the highest dose activity change, negative = inhibition, most hits filed as inhibitors. actives 1.8% (n = 300,000). AID 540276; active = well fitted inhibition curve with a large enough effect; inconclusive = small, poorly fitted or top-dose-only effect, or effect the other way; inactive = flat fitted curve, though single readings scatter; tested in HEK293 cells; about a fifth of its hits are not listed in these tables; further: on the % scale 0 is the no-effect control and ±100 the full control effect; luciferase read-out
SARS PLpro yeast: SARS-CoV PLP inhibition in yeast | Potency, µM (series often up to 32.9 µM), without a hit: at the top dose activity, positive = growth rescue | actives 0.19% (n = 330,000) | S. cerevisiae expressing SARS-CoV PLpro, growth rescue; control for the full effect not named in the record; further: 0% is about no effect; nearly all actives have a fitted effect of over 55% in size; growth read by luminescence after 48 h
StopGo reporter: lowers the luciferase signal of an FMDV 2A StopGo reporter. Potency, µM (top dose mostly 57.9 µM), inactives show top-dose signal change, negative = less light. human cells with a luciferase reporter of 2A StopGo recoding; control for the full effect not named in the record. actives 1.2% (n = 410,000); active = well fitted falling curve with a large enough effect; inconclusive = small, poorly fitted or top-dose-only effect; inactive = no such curve, though single readings can be large or run the other way; tested in HEK293T cells; further: on the % scale 0 is the no-effect control and ±100 the full control effect; nearly all actives have a fitted effect of over 45% in size; luciferase light after 4 h
Cruzain inh Det: blocks cruzain activity in presence of Triton detergent; AID 1478; P25779; Potency, µM, for inactives: max response, negative = inhibition, usual class: inhibitors; actives 0.43% (n = 200,000); purified cruzain, Z-FR-AMC fluorescence, 0.01% Triton; active means well fitted curve in the direction sought with a large enough effect; inconclusive means small, poorly fitted or top-dose-only effect, or another doubt; inactive means no such curve, though single readings can be large; an effect the other way counts as inactive or inconclusive;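 further: plate controls were neutral wells for no effect and buffer without enzyme for full effect; nearly all actives have a fitted effect of over 40% in size; top concentration of the series not given in the record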
Target sequence (P25779 123-467 limits assumed): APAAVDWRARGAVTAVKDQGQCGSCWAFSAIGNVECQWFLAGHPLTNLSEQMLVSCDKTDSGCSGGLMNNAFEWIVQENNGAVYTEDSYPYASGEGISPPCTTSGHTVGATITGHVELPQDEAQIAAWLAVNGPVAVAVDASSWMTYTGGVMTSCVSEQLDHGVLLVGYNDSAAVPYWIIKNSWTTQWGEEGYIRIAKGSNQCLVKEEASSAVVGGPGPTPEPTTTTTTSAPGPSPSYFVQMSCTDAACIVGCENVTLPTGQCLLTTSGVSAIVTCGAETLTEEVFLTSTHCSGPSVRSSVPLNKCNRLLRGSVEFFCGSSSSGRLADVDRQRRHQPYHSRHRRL
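Steps: dispense cruzain (1.5 nM final) in acetate buffer pH 5.5 with DTT and 0.01% Triton X-100; pin-transfer compounds; incubate 15 min RT; add Z-FR-AMC (2 uM final); read fluorescence every 30 s, using the 60 s intensity change.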
Cruzain noTriton: blocks cruzain activity in detergent-free assay; purified cruzain, Z-FR-AMC fluorescence, no detergent; P25779; Potency, µM, inactives show max response, negative = inhibition, most hits filed as inhibitors; AID 1476; actives 2.3% (n = 200,000); active means well fitted curve in the direction sought with a large enough effect; inconclusive means small, poorly fitted or top-dose-only effect, or another doubt; inactive means no such curve, though single readings can be large; an effect the other way counts as inactive or inconclusive;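 further: plate controls were enzyme without inhibitor for no effect and buffer without enzyme for full effect; nearly all actives have a fitted effect of over 40% in size; top concentration of the series not given in the record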
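Detergent-free condition (0.00005% Triton X-100) in acetate buffer pH 5.5 with DTT. 1.5 nM enzyme and compound were pre-mixed 15 min, then 2 uM Z-FR-AMC substrate added; reaction progress from fluorescence change between first and third reads (60 s).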
RE007 growth inh: less growth of the S. pombe RE007 Vpr strain. S. pombe RE007 Vpr strain, BacTiter-Glo ATP luminescence, 24 h; control for the full effect not named in the record. actives 0.21% (n = 360,000). Potency, µM (doses to about 92.2 µM), inactives show at the highest dose activity change, negative = less growth. AID 651644; active = well fitted falling curve with a large enough effect; inconclusive = small, poorly fitted or top-dose-only effect; inactive = no such curve, though single readings can be large or run the other way;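 further: on the % scale 0 is the no-effect control and ±100 the full control effect; nearly all actives have a fitted effect of over 50% in size; the assay follows cell death caused by Vpr and the record does not say whether a fall means rescue or toxicity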
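Fission yeast RE007 carrying one integrated HIV-1 vpr copy, seeded at OD 0.01 in PMG+AL medium with 23 nL pinned compound. Grown 24 h at 30 degrees; viability read by BacTiter-Glo luminescence after 5 min.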
An asterisk follows results filed as active; ? = inconclusive; · = not tested or not shown; & = joins results of further samples; ! = repeats disagree; [ ] = dose if it differs, or a comment. Unless noted, the call rests on the fitted dose curve; in most records, active means well fitted rising curve with a large enough effect; inconclusive means small, poorly fitted or top-dose-only effect; inactive means no such curve, though single readings can be large or run the other way. Potency means the concentration at half of the fitted maximal effect.

SMILES	NS1 inh	Lassa entry inh	Marburg entry inh	SARS PLpro yeast	StopGo reporter	Cruzain inh Det	Cruzain noTriton	RE007 growth inh
CC(O)Cn1c(N2CCCC2)nc2c1c(=O)n(C)c(=O)n2C (stereo not given)	-4%	·	·	-5%	-9%	·	·	1%
N/C(CSc1nc(-c2ccccc2)c(-c2ccccc2)o1)=N\O	-72%	-16%	-25%	-2%	-27%	-4.2%	-9%	-5%
CCCCCCCCOC(=O)C[N+](C)(C)C/C=C(/C)Cl	-1%	6%	3%	-25%	-19%	-4.2%	6%	-21%
CCn1cc(C(=O)N2CCN(c3ccc(OC)cc3)CC2)c(=O)c2cc(S(=O)(=O)N(C)C3CCCCC3)ccc21	·	10%[46.1 µM]	5%[46.1 µM]	·	4%	4.4%	?	·
CC(C)(CO)Nc1nc(Cl)nc(NC2CCCCC2)n1	-3%	·	·	1%	13%	·	·	2%
COc1ccc(-c2ccc(=O)n(CC(=O)Nc3ccc(N(C)C)cc3)n2)cc1	·	12%[46.1 µM]	·	·	16%	-2.4%	-6%	·
COc1ccc(C2=NN(C(=O)CSc3nc4ncc(Cl)cc4[nH]3)C(c3ccco3)C2)cc1 (stereo not given)	·	2%[46.1 µM]	-12%[46.1 µM]	-1%	6%	·	·	1%
COc1ccc(NC(=O)CSc2nnc(C)c(=O)n2N)cc1	4%	3%	-17%	2%	-16%	·	·	6%
COCCNC(=O)c1ccc2c(c1)ncn2-c1ccc(F)c(F)c1	-5%	4%	?	1%	27%	-1.5%	16%	-8%
O=c1c2ccccc2nc(Cc2ccccc2)n1-c1ccccc1	-4%	·	·	0%	36%[activator]	·	·	14%
O=C(Cn1cc2c(n1)CCCC2)NCc1cccnc1	4%	4%	10%	-6%	-27%	0.0%	16%	5%
COc1cccc(NC(=O)N2CCCc3ccccc32)c1	3%	·	·	0%	6%	·	·	-10%
O=C(Nc1ccccc1C(=O)Nc1ccccc1)c1ccccc1Br	·	-6%	3%	·	-3%	·	·	4%
CCOC(=O)N1CCN(c2nc(C)c3c(n2)CC(C)CC3=O)CC1 (stereo not given)	-15%	-20%	-3%	-2%	-1%	-1.4%	3%	12%
CN(CCO)c1cc(Sc2nc3ccccc3s2)c2nonc2c1[N+](=O)[O-]	-56%	?	?	-23%	22µM*	0.6%	3%	-2%
CCOc1ccc(-n2c(Cc3ccccc3)nnc2SCc2nc(-c3ccccc3C)no2)cc1	·	1%[46.1 µM]	-15%[46.1 µM]	·	0%	-8.1%	-8%	·
COc1ccc(NC(=O)CN2C(=O)COc3ccc(S(=O)(=O)N4CCCCC4)cc32)c(OC)c1	-2%	-22%[46.1 µM]	-2%[46.1 µM]	1%	-11%	·	·	5%
COc1cccc(OCCNC(=O)c2cccc(OC)c2)c1	-7%	11%	-3%	4%	-6%	1.4%	-6%	-10%
Cc1ccccc1-n1nnnc1SC1CCOC1=O (stereo not given)	-12%	-15%	-1%	4%	-5%	0.8%	-8%	28%
COc1ccc2nc(SC(C(=O)c3ccccc3)c3ccccc3)nc(C)c2c1 (stereo not given)	?	?	?	11%	-7%	-3.5%	?	13%
COc1ccc([N+](=O)[O-])cc1NC(=O)c1ccccc1SC	·	-29%	?	0%	-16%	·	·	7%
Cc1nc2c(-c3ccccc3)c(C)nn2c(SCC(N)=O)c1Cc1ccccc1	-14%	·	·	-1%	?	·	·	2%
COc1ccc(CCN2CC(C(=O)NCCc3ccccc3)CC2=O)cc1OC (stereo not given)	·	7%[46.1 µM]	·	0%	44%&18%[activator]	-0.2%	5%	18%
CC1CCN(CC(=O)Nc2ccc(Br)cc2[N+](=O)[O-])CC1	0%	·	·	0%	27%	·	·	5%
COc1ccc(S(=O)(=O)Cc2ccc(C(=O)NCc3ccc(C)cc3)o2)cc1	-14%	?	?	3%	?	·	·	-27%
SMILES	NS1 inh	Lassa entry inh	Marburg entry inh	SARS PLpro yeast	StopGo reporter	Cruzain inh Det	Cruzain noTriton	RE007 growth inh
COc1cc(OC)cc(C(=O)N2CCN(S(C)(=O)=O)CC2)c1	?	-5%	13%	0%	-19%	0.7%	3%	-6%
O=C(N/N=C/c1ccccn1)C(O)c1ccccc1 (stereo not given)	3%	·	·	-3%	1%	·	·	1%
COc1ccc(CCNC(=O)CN2C(=O)c3ccccc3S2(=O)=O)cc1	-4%	-10%	-7%	18%	13%	-1.5%	13%	-2%
O=C(CN1C(=O)NC2(CCCC2)C1=O)N1CCN(S(=O)(=O)c2ccc(Cl)cc2)CC1	-1%	·	·	0%	-3%	·	·	6%
CC(=O)C(=Cc1cn(-c2ccccc2)nc1-c1ccccc1)C(C)=O	-31%	·	·	3%	-12%	·	·	-11%
COc1ccc(N(CC(C)C)S(=O)(=O)c2nnc(NC(=O)c3cccs3)s2)cc1	·	-23%[46.1 µM]	·	·	-10%	-8.1%	12%	·
Cn1ncc(Cl)c1C(=O)N1CCN(S(=O)(=O)c2ccc(F)cc2)CC1	-4%	·	·	-3%	-20%	·	·	1%
Cc1nc(-c2ccccc2)ccc1C(=O)O	·	?	17%[46.1 µM]	0%	-1%	·	·	-6%
CCN1c2ccccc2-c2nc(SCC(=O)Nc3ccc(C)c(Cl)c3)ncc2S1(=O)=O	·	?	·	·	-11%	-0.7%	?	·
CCOC(=O)c1ccc(NC(=O)NCc2cccnc2)cc1	1%	·	·	-5%	5%	·	·	5%
COc1cccc(/C=C2\Oc3cc(OCC(=O)N4Cc5ccccc5C[C@H]4C(=O)O)ccc3C2=O)c1	?	·	·	5%	-6%	·	·	-2%
COCCNC(=O)C(=O)Nc1ccc(Br)cc1	-2%	16%	-9%	2%	42%[activator]	0.1%	3%	1%
Cc1ccccc1CNS(=O)(=O)c1c(C(=O)N2CCCCC2)c(C)n(C)c1C	-3%	-12%[46.1 µM]	-12%[46.1 µM]	5%	-1%	·	·	2%
COc1ccc(/C=C2\N=C(SC)N(C)C2=O)cc1	-20%	-3%	12%	-4%	29%	-9.4%	-1%	-22%
CCCNc1ncnc2c1cnn2-c1ccc(OC)cc1	-1%	·	6%	4%	·	-1.3%	3%	·
Cc1ccc(C)c(NC(=O)CSc2nc(-c3ccccc3)c(C#N)c(=O)[nH]2)c1	·	-5%[46.1 µM]	16%[46.1 µM]	·	-4%	-3.3%	2%	·
CCn1cc2nc(SCc3cc(C)ccc3C)n(Cc3ccc(C)cc3)c(=O)c2n1	·	?	·	·	-29%	2.3%	-13%	·
CCCc1nc(N2CCN(C)CC2)c2sc(=S)n(-c3ccccc3)c2n1	7%	·	·	7%	0%	-0.7%	12%	3%
c1ccc(NCc2nc(-c3ccccc3)no2)cc1	-25%	5%	?	-1%	54%[activator]	-5.3%	-1%	-17%
N=c1n(CCN2CCCCC2)c2ccccc2n1CC(O)COc1ccccc1 (stereo not given)	4%	?	?	10%	40µM*!	3.5%&-2.7%	1%&2%	-15%
O=C(NNC1CC(=O)N(c2ccccc2)C1=O)c1cccnc1 (stereo not given)	6%	9%	6%[46.1 µM]	2%	2%	·	·	-6%
Cc1ccc(-n2c(C)nc3ccccc3c2=O)c(C)c1	0%	·	·	-1%	-5%	·	·	26%
Cc1ccc(CN2COc3ccc4c(-c5ccccc5)cc(=O)oc4c3C2)cc1	·	20%[46.1 µM]	-10%[46.1 µM]	·	0%	-21%	?	·
COc1ccc(C(=O)NC(=S)N2CCC(C)CC2)cc1Br	-18%	?	20%[46.1 µM]	2%	23%	·	·	11%
COc1ccc(C(=O)c2ccccc2Cl)cc1	-12%	-2%	-4%	11%	3%	-2.6%	2%	-12%
SMILES	NS1 inh	Lassa entry inh	Marburg entry inh	SARS PLpro yeast	StopGo reporter	Cruzain inh Det	Cruzain noTriton	RE007 growth inh
CC(C)c1ncc(S(=O)(=O)c2ccc(C(F)(F)F)cn2)c(N)n1	6%	·	·	0%	-22%	·	·	-9%
COc1ccccc1NC(=O)O/N=C(\N)c1ccccc1	-56%	·	·	-2%	8%	·	·	6%
Cc1ccccc1OCC(=O)Nc1nnc(SCc2cc(=O)n3cccc(C)c3n2)s1	·	3%[46.1 µM]	·	·	-9%	0.6%	-17%	·
CC(=O)N1c2c(cc(Br)cc2S(=O)(=O)N2CCN(c3cccc(Cl)c3)CC2)CC1C (stereo not given)	·	-22%[46.1 µM]	-15%[46.1 µM]	·	-24%	-1.7%	-4%	·
COc1ccccc1NC(=O)c1ccccc1NC(=O)c1cc(Cl)ccc1NC(=O)c1ccco1	6%	3%	?	1%	-21%	-4.9%	16µM*	-6%
COc1cc(CC(=O)N(C)CC(=O)Nc2cc(C)ccc2C)cc(OC)c1OC	-13%	27%	3%[46.1 µM]	-9%	-8%	·	·	15%
O=C(Cc1ccc2c(c1)OCCO2)N1CCN(S(=O)(=O)c2cccc(Cl)c2Cl)CC1	13%	6%	5%	-21%	-12%	-7.3%	24%	2%
COc1ccccc1OCC(=O)Nc1c2c(nn1-c1ccc(C)cc1)CS(=O)(=O)C2	·	14%	9%	-1%	-20%	·	·	0%
CN(C(=O)CSc1nnc(NC(=O)Nc2ccccc2)s1)c1ccccc1	·	4%[46.1 µM]	·	·	?	-3.6%	4%	·
COc1ccc(CNC(=O)c2cccc(S(=O)(=O)N3CCN(c4ccc(F)cc4)CC3)c2)cc1	·	?	?	5%	-20%	·	·	13%
COc1ccccc1OCc1cc(C(=O)N2CC3C[C@@H]4CC2C[C@H](C3)C4)no1	-1%	·	·	-3%	28%	·	·	10%
Cc1ccc(OCc2cc(C(=O)Nc3ccccc3)oc2C)cc1	-64%	19%	3%	11%	28%	-8.6%	5%	2%
CN1C(=O)N(C)C2(CC1(C)C)CC(C)(C)N(C)C(=O)N2C	-1%	-7%	2%	-3%	2%	5.5%	-4%	29%
Cc1nc(N)nc(N/N=C/c2c(F)cccc2Cl)n1	5%	22%	?	0%	29%	·	·	-10%
O=C(CCN1C(=O)c2ccccc2C1=O)Nc1ccc(-c2cn3ccsc3n2)cc1	-19%	?	-36%	-12%	1%	6.4%	?	3%
NS(=O)(=O)c1ccc(CCNC(=O)c2ccc(OCC3CCCO3)cc2)cc1 (stereo not given)	-2%	1%	7%	-4%	-28%	·	·	5%

Screens deposited in PubChem by National Center for Advancing Translational Sciences (NCATS).
